Autofluor counter: counter-screen for toxin protease inhibitors: compound fluorescence | compound autofluorescence counterscreen, microsphere flow cytometry; stronger effect = higher value | fluorescence intensity (concentration not given with the values) | hit rate 3.1% among 360,000;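 active = at least 3 SD above the mean of all compounds, about 16000 in these data; inconclusive = too few beads counted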;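 also: 100 nL of 1 mM stock went into each well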
PrP UTR inh: inhibition of PrP 5' UTR reporter expression; cell-based PrP 5' UTR mRNA reporter, plate reader; inhibition, % (concentration not given with the values); hit rate 0.35% among 340,000; AID 488862, 2010;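 active = every replicate at 50% or more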;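 also: 0 = median of the neutral control wells; tested in H4 reporter cells; numbers are from one replicate; inactives centre near -14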
Sa ugtP lethal: growth inhibition of ugtP-null S. aureus, primary screen, RN4220 ugtP deletion, OD600 | growth inhibition, % (concentration not given with the values) | hit rate 0.54% among 330,000 | 16 h; some inactives read as strong as hits;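 active = z-score under -3 and OD600 up to 0.15 on both plates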;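 also: plate controls were untreated wells for no effect and antibiotic for full effect; wells of about 80 µL received 100 nL stock; the first replicate is given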
Sa RN4220 lethal: growth inhibition of S. aureus RN4220, primary screen, OD600 | inhibition, % (test concentration not listed) | hit rate 0.33% among 330,000 | 16 h;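 active = z-score of -3 or lower and OD600 up to 0.18 on both plates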;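 also: plate controls were untreated cells for no effect and reference antibiotic for full effect; stock transfer was 100 nL into about 80 µL; one replicate is shown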
BJeLR lethal: MLPCN primary cell-based screen for lethality selective to Ras in HRASV12 cells; BJeLR (HRASV12) viability, CellTiter-Glo ATP luminescence, 48 h; reference of the scale not given here; hit rate 0.17% among 300,000; inhibition, % (concentration not given with the values);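 active = replicate mean above 50%; inconclusive = above 50% but judged a plate artefact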;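 also: 50 nL library stock added to about 25 µL; numbers are from one replicate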
Mtb hypoxia inh: PubChem AID 1159583 | hit rate 0.1% among 300,000 | fluorescence inhibition, % (concentration not given with the values) | M. tuberculosis hypoxia-regulated fluorescent reporter, fluorescence;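 active = 35 to 45% if threefold the growth effect, above 45% if 1.5-fold the growth effect; inactive = the rest, general growth blockers included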;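 also: wells of about 50 µL received 100 nL stock; 0% = vehicle wells and 100% = reference inhibitor wells; whole bacteria with a GFP reporter of the hypoxia response; strong numbers were not always called active; many hits fall short of the cut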
Mtb hypoxia inh growth: second read-out of Mtb hypoxia inh, no call of its own (marks repeat the call); growth inhibition, %; measured here: M. tuberculosis growth (absorbance);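 0% = vehicle and 100% = reference antibiotic; read after six days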
* marks the source's active call; other numbers are inactive results; ? = inconclusive; . = not tested or not shown; & = joins results of further samples. An unsorted share of the library. About 4% of those tested had a hit in this group.

SMILES	Autofluor counter	PrP UTR inh	Sa ugtP lethal	Sa RN4220 lethal	BJeLR lethal	Mtb hypoxia inh	Mtb hypoxia inh growth
Cc1cc(C)c2[nH]c3nc(SCC(=O)O)nnc3c2c1	3880	6	6	2.8	-2	1	3
O=C(CCNC(=O)N1CC(=O)Nc2ccccc21)NCc1ccc(F)cc1	5606	-14	3	2.7	-5	7	9
Nc1nc(NCc2ccccc2)nc(Nc2cccc(F)c2)c1[N+](=O)[O-]	22824*	-15	-6	-1.1	.	2	-3
C=CCn1c(-c2sccc2C)n[nH]c1=S	2537	4	22	7.7	0	15	6
CCOC(=O)N1CCN(C(=O)c2ccc3c(=O)n(Cc4ccc(Cl)cc4)c(=S)[nH]c3c2)CC1	19158*	-43	-14	-14	-8	8	4
Cc1cccc(CN2CCN(c3ccc(Cl)cc3)CC2)c1	4945	-20	16	9.1	-1	2	-6
c1ccc(CCc2ccncc2)cc1	4056	-5	6	4.1	8	-1	-11
CCCC1=NN2C(=N)/C(=C\c3cc(C)n(Cc4ccccc4)c3C)C(=O)N=C2S1	3793	-5	-16	7.2	4	9	-2
CCC(=O)N1CCc2cc(S(=O)(=O)CCC(=O)NCc3cccs3)ccc21	4774	-14	-2	-0.1	-10	.	.
CCCS(=O)(=O)N1CCc2ccc(NC(=O)c3ccccc3Cl)cc2C1	3603	-23	4	3.4	-3	-2	2
CC(=NNC(=O)c1nn(C)c(C)c1Br)c1cccc(NC(=O)c2ccc(F)cc2)c1	.	.	0	-0.1	.	7	3
O=[N+]([O-])c1ccc(COc2cccnc2)cc1	4566	-17	6	5.0	0	2	2
COc1cc(/C=C/C(=O)OCC(=O)N2CCCC2)ccc1OCC#N	3947	-11	-6	-2.9	.	-7	0
CCOC(=O)c1c(C)[nH]c(C)c1C(=O)CN1C(=O)NC(CC(C)C)C1=O (centres undefined)	4126	-1	0	3.6	-15	7	8
Cc1cccc(NC(=O)C2CCN(C(=O)NCc3ccccc3)CC2)c1C	4199	-7	12	3.1	-7	2	-2
Cc1cc(C)c(S(=O)(=O)c2ccccc2C)c(Cl)n1	10728	-20	-6	1.5	-10	2	6
NC(=NN=Cc1ccc(O)cc1O)N[N+](=O)[O-]	.	.	0	5.2	.	-1	11
Cc1ccc(S(=O)(=O)NC(=O)Nc2cc(C(C)(C)C)on2)cc1	.	.	14	3.4	-8	18	1
CN(C)CCCN(C(=O)C1COc2ccccc2O1)c1nc2ccc(F)cc2s1 (centres undefined)	4737	-12	-2	4.7	2	13	0
Cc1ccc(C(OCC(O)CNCc2ccc(F)cc2)c2ccccc2)cc1 (centres undefined)	3512	18	-21	-5.5	9	7	1

Single records, as listed above. Screens in order: Autofluor counter	PrP UTR inh	Sa ugtP lethal	Sa RN4220 lethal	BJeLR lethal	Mtb hypoxia inh	Mtb hypoxia inh growth
Nc1nc(NCc2ccccc2)nc(Nc2cccc(F)c2)c1[N+](=O)[O-] is listed as 22824*	-15	-6	-1.1	.	2	-3
Cc1cccc(CN2CCN(c3ccc(Cl)cc3)CC2)c1 is listed as 4945	-20	16	9.1	-1	2	-6

Continued:
SMILES	Autofluor counter	PrP UTR inh	Sa ugtP lethal	Sa RN4220 lethal	BJeLR lethal	Mtb hypoxia inh	Mtb hypoxia inh growth
Cc1ccc(C)c(OCC(O)CN2C(C)CCCC2C)c1 (centres undefined)	3065	-11	3	6.0	-2	1	2
COc1ccc(OCC(=O)NNC(=O)CCc2ccccc2)cc1	2012	-16	5	2.4	-2	-1	-49
CS(=O)(=O)N(CC(=O)NCc1ccco1)c1ccccc1Cl	9195	-31	-1	1.1	-3	8	5
COc1ccc(OC)c(C(O)=CC(=O)C(=O)Nc2ccccc2OC)c1	.	.	1	7.8	.	6	4
CC1CN(C(=O)CSc2nnc(C3CCCCC3)n2N)CC(C)O1 (centres undefined)	3793	-10	6	0.6	.	17	43
Cc1ccc(OCC(=O)N/N=C2\CC(=O)CC(C)(C)C2)c(Br)c1	6265	-69	.	.	4	.	.
Cc1oc2ccc(OCc3ccc(F)cc3)cc2c1C(=O)O	4311	2	-15	8.5	7	-6	-1
CCC(=O)Nc1ccccc1Oc1ccccc1	4502	-9	1	2.9	-2	16	9
C[C@H](NC(N)=O)C(=O)N1CCN(S(=O)(=O)c2ccc3ccccc3c2)CC1	3943	-34	12	-1.8	0	9	-3
O=C(COC(=O)c1cnccn1)NCCc1ccc(Cl)cc1Cl	3341	-11	-13	0.4	9	-1	9
Cc1ccccc1NC(=O)CCN1CCN(Cc2ccccc2)CC1	4585	-35	0	0.6	-7	-1	19
c1ccc(CSc2ccc(-c3cccnc3)nn2)cc1	6107	-46	4	3.0	-16	9	16
O=C(Nc1ccc(Br)cc1)C1CC(O)CN1C(=O)Oc1ccccc1 (centres undefined)	3022	-1	18	3.9	3	6	-3
CN=c1scc(C)n1/N=C/c1cc(Br)c(O)c(OC)c1	3823	-27	.	.	5	.	.
CS(=O)(=O)CC(=O)Nc1ccc2nc3n(c(=O)c2c1)CCCCC3	4528	-4	-3	0.5	0	-14	8
OCCC1CN(Cc2cc(F)ccc2-n2cccn2)CCN1C1CCCC1 (centres undefined)	4460	-17	5	13	-5	13	10
COc1cccc(/C=C2\SC(=O)N(CCC(=O)NNC(=O)c3ccccc3Cl)C2=O)c1	9223	-23	.	.	3	.	.
COc1ccccc1-c1nc2c(c(SCC(=O)N3CCCCC3)n1)Cc1c(CO)cnc(C)c1O2	5898	-19	-1	3.8	-3	-1	7
CCOC(=O)Cc1nnc(NC(=O)COc2ccc(C)cc2)s1	2859	-19	-7	-1.5	-3	.	.
CN(C)c1ccc(P(=O)(CC(=O)NN=Cc2ccc(C#N)cc2)OCCCl)cc1 (centres undefined)	.	.	0	2.8	.	15	4
C[C@@H](C(=O)Nc1ccc2ccccc2c1)[C@@H]1C[C@@]1(C)[C@@H](N)c1ccccc1	4610	-21	.	.	11	.	.
Cc1nc(/N=C(\N)N(C)C)[nH]c(=O)c1C	3919	-25	1	-0.1	-4	9	1
CSc1ccc(CNc2ncc(-c3cccc([N+](=O)[O-])c3)n2C)cc1	3872	-11	-2	5.0	-6	-7	15
COc1ccc(NC2=NCC(=O)N2c2ccccc2F)cc1	4387	-11	8	1.0	-11	.	.
CC(C)OC(=O)/C(=C\c1ccc2c(c1)c1ccccc1n2C)NC(=O)c1ccccc1	3338	-37	.	.	-5	.	.
Oc1cccc(C=NCc2ccccc2)c1O	?	-4	-5	6.9	4	3	8
CCCCCCSc1ccc([C@@H]2[C@@H]3C(=O)N(CC)C(=O)[C@@H]3[C@]3(C(=O)OC)CCCCN23)cc1	2889	5	11	-2.7	.	-2	2
CC(C)OC(=O)CC1C(=O)NCCN1C(=S)NC(=O)CCc1ccccc1 (centres undefined)	2336	-13	-5	3.5	-2	6	2
CCc1ccc(NC(=O)C(CC)Sc2nc3cc4c(cc3c(=O)n2Cc2ccco2)OCO4)cc1 (centres undefined)	20624*	-27	11	8.3	-9	1	0
O=C(CSc1nc2ccccc2c(=O)[nH]1)Nc1ccc(N2CCOCC2)cc1	?	-8	-3	-0.4	12	-5	1
CC(=O)Nc1ccc(/C(C)=N/NC(=O)c2ccc(CN3CCOCC3)cc2)cc1	4091	-5	.	.	-5	.	.
O=C(O)c1ccc(Nc2ncnc3c2cnn3Cc2ccccc2)cc1	3591	-7	0	4.2	-3	-1	9
Cc1ccc(NC(=S)NCC2CCCO2)c(OC(F)F)c1 (centres undefined)	2444	-2	2	5.7	-3	7	4
CCC(=O)N1c2ccc(S(=O)(=O)N3CCN(CC)CC3)cc2CC1C (centres undefined)	4354	-10	11	0.6	6	7	-6
COc1ccc(-c2cc(C(F)(F)F)nc(SCC(=O)Nc3cc(C)on3)n2)cc1OC	2450	4	19	2.8	-6	7	1
Cc1cc(C)n2c(=O)[nH]nc2c1	4036	-42	-3	0.9	.	-7	2
CC[N+](CC)(CC=C(C)C)CC(=O)OC	2301	4	3	0.4	1	-3	-3
O=C(CNC(=O)c1ccco1)NCc1ccc2c(c1)OCO2	5535	-34	7	6.8	.	-1	2
O=C(NCC1CCCO1)c1ccc(S(=O)(=O)N2CCCCC2)cc1 (centres undefined)	4228	-17	1	-0.2	4	16	11
O=C(CCC1CCCCC1)Nc1ccc(S(=O)(=O)Nc2nccs2)cc1	5693	-9	3	-2.1	3	.	.

The last four compounds of the part before are carried over, then new ones follow:
SMILES	Autofluor counter	PrP UTR inh	Sa ugtP lethal	Sa RN4220 lethal	BJeLR lethal	Mtb hypoxia inh	Mtb hypoxia inh growth
CC[N+](CC)(CC=C(C)C)CC(=O)OC	2301	4	3	0.4	1	-3	-3
O=C(CNC(=O)c1ccco1)NCc1ccc2c(c1)OCO2	5535	-34	7	6.8	.	-1	2
O=C(NCC1CCCO1)c1ccc(S(=O)(=O)N2CCCCC2)cc1 (centres undefined)	4228	-17	1	-0.2	4	16	11
O=C(CCC1CCCCC1)Nc1ccc(S(=O)(=O)Nc2nccs2)cc1	5693	-9	3	-2.1	3	.	.
CCn1c(SCC(=O)Nc2nccs2)nnc1-c1ccc(S(=O)(=O)N2CCCCCC2)cc1	4140	-6	-4	8.6	2	-1	13
CSc1ccccc1NC(=O)c1cccnc1	11203	-16	1	-1.4	-11	5	3
CC1(C)CC(=O)C/C(=N\NC(=O)CCc2ccc(S(=O)(=O)N3CCOCC3)cc2)C1	3332	-3	.	.	2	.	.
Cc1c(Br)c([N+](=O)[O-])nn1CC(=O)c1ccccc1	.	-14	2	3.0	0	5	-3
COc1cc(C=NNC(=O)c2ccc(Cl)cc2)ccc1OCC(=O)N1CC(C)OC(C)C1 (centres undefined)	.	.	1	2.6	.	9	11
COc1ccc(CC(=O)Nc2ccc3nc(SC)sc3c2)cc1OC	4253	-20	6	11	0	0	-10
CCOc1ccc(CNC(=O)Nc2ccccc2)cc1	4052	-37	6	2.5	-2	18	14
COC(=O)/C=C1\S/C(=N\N=C\CC(=O)OC)NC1=O	3596	-10	.	.	-1	.	.
Cc1ccc(-c2csc(N3CCC(C(N)=O)CC3)n2)cc1	2929	-41	0	4.8	.	-6	1
CC(=O)N1c2ccccc2C(C)C1C (centres undefined)	.	.	5&0	4.5&1.8	.	8&2	-2&16
C=CCOCCN1C(=O)C2C(c3ccccc3)C=CC(c3ccccc3)C2C1=O (centres undefined)	3781	-21	4	-1.8	6	.	.
Cc1ccc(-c2cc(C(=O)O)c3cc(Br)ccc3n2)o1	2175	-6	1	4.7	-8	10	6
CCOC(=O)C1CCN(C(=O)c2ccc(Cl)c(S(=O)(=O)N3CCOCC3)c2)CC1	10924	-22	7	8.4	1	18	2
S=c1[nH]cc(-c2ccccc2)n1-c1cccc(Cl)c1	2008	-11	13	-0.5	-8	10	4
COc1ccc(CCNC(N)=S)cc1OC	2180	-11	3	2.8	-2	2	-2
c1ccc2cc(OCc3nc4ccccc4[nH]3)ccc2c1	9275	-167	-4	-7.8	-1	3	6
COc1ccc([N+](=O)[O-])cc1NC(=O)C(C)N(C)Cc1cccc(OC)c1OC (centres undefined)	2494	-11	-15	-0.4	-13	20	12
COc1ccc(C)cc1NC(=O)C(OC(=O)C1CC1)c1ccccc1 (centres undefined)	4301	-35	-1	18	-9	-1	15
Cc1cccc(N(C)S(=O)(=O)c2c(C)noc2C)c1	5154	-14	5	2.0	4	-2	-5

Copied from the listing (4 entries):
SMILES	Autofluor counter	PrP UTR inh	Sa ugtP lethal	Sa RN4220 lethal	BJeLR lethal	Mtb hypoxia inh	Mtb hypoxia inh growth
c1ccc2cc(OCc3nc4ccccc4[nH]3)ccc2c1	9275	-167	-4	-7.8	-1	3	6
COc1ccc([N+](=O)[O-])cc1NC(=O)C(C)N(C)Cc1cccc(OC)c1OC (centres undefined)	2494	-11	-15	-0.4	-13	20	12
COc1ccc(C)cc1NC(=O)C(OC(=O)C1CC1)c1ccccc1 (centres undefined)	4301	-35	-1	18	-9	-1	15
Cc1cccc(N(C)S(=O)(=O)c2c(C)noc2C)c1	5154	-14	5	2.0	4	-2	-5

Screening results deposited in PubChem by several laboratories.
